MgrA-DNA mod: S. aureus MgrA activity modulators, primary screen, biochemical, S. aureus Newman, fluorescence polarization. MgrA-DNA binding. 84,000 tested, 0.13% active. AID 602314, 2012. inhibition, %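 (about 10 µg/mL by stock and volumes)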;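 active = above 50% in either of two replicates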;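 note: 0% = protein plus DNA without compound and 100% = DNA alone without protein; higher means less MgrA bound to DNA so lower polarization; one replicate is shown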
Sa helicase inh: inhibitors of S. aureus replicative helicase, primary screen, biochemical, fluorescence unwinding readout; purified S. aureus helicase, fluorescence unwinding assay; about half of the hits fall short of the stated cut; inhibition, %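 (tested at about 80 µM)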; 120,000 tested, 0.05% active;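 active = both duplicates at 50% or more, or one of them with a favoured structure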;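 note: 0% = mean of negative control wells and 100% = mean of positive control wells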
Starred values were filed as active, the others as inactive; . = no result given.

The first 2 compounds as a preview:
Below each SMILES: MgrA-DNA mod	Sa helicase inh
COc1cccc(NC(=O)CC(C)NCc2nc3ccccc3[nH]2)c1 (stereo unspecified)
→ .	26
CCOC(=O)N1CCN(C(=O)C(C)C)CC1
→ .	10

All compounds of this part, previewed entries included:
Below each SMILES: MgrA-DNA mod	Sa helicase inh
COc1cccc(NC(=O)CC(C)NCc2nc3ccccc3[nH]2)c1 (stereo unspecified)
→ .	26
CCOC(=O)N1CCN(C(=O)C(C)C)CC1
→ .	10
O=C(Nc1ccc(Cl)cc1)C1CCc2ccccc2O1 (stereo unspecified)
→ -1.6	.
N#Cc1c(-c2ccco2)c2c([nH]c1=S)CCCC2=O
→ .	-2
O=C(CSCc1ccc(Cl)cc1)c1cc2ccccc2o1
→ -2.0	-7
O=C(N1CCCCCC1)N1CCN(C(=O)N2CCCCCC2)CC1
→ -1.8	2
CC(=O)CC(=O)c1c(C)[nH]n(-c2ccccc2)c1=O
→ 0.9	.
CCN1C2=C(C(=O)CC(C)(C)C2)C(c2ccc(OC)cc2)C2=C1CC(C)(C)CC2=O
→ 0.3	9
Cn1c(=O)c2c(nc3n(-c4ccccc4)c(-c4cccs4)cn23)n(C)c1=O
→ .	10
CSc1nc2ccccc2n1CC(=O)c1cc(C)n(C)c1C
→ .	-9
O=C(O)CN1C(=O)/C(=C\c2ccc(-c3ccc([N+](=O)[O-])cc3Cl)o2)SC1=S
→ 1.3	.
Cc1nc(=S)[nH]c(C)c1CCC(=O)O
→ .	-9
CCCc1cc(N2CCCCC2)n2c(nc3ccccc32)c1C#N
→ .	2
FC(F)(F)c1ccc2cc(CSc3ccc(Cl)cc3)ccc2n1
→ -0.3	.
OCC(O)Cn1c(COc2ccccc2)nc2ccccc21 (stereo unspecified)
→ .	-21
CCOC(=O)c1sc(NC(=O)C2C3C=CC(C3)C2C(=O)O)nc1C (stereo unspecified)
→ 1.4	3
NC(=O)c1ccc(Nc2nc(=S)[nH]c3ccccc23)cc1
→ 0.8	8
CCn1c(COc2cccc(C)c2)nnc1SCC(=O)NC(C)(C)C
→ 1.8	-8
Nc1nnnn1/N=C\C=C\c1ccccc1
→ 2.2	-2
CC(C)=C1C(=O)Nc2ccc(S(=O)(=O)N(C)C3CCCCC3)cc21
→ .	3
Cc1ccc(-n2cnc3cc(NCc4ccncc4)ccc32)cc1
→ .	-2
O=C(CCC(=O)c1ccc(F)cc1)Nc1cccnc1
→ .	5
COc1ccccc1CNS(=O)(=O)c1cccs1
→ 0.2	6
COc1ccc(C2NC(=O)CS2)cc1 (stereo unspecified)
→ -3.1	12
CC(C)Nc1ncnc2scc(-c3ccccc3)c12
→ 0.2	.
Cc1ccsc1CCNS(=O)(=O)c1ccc2[nH]c(=O)ccc2c1
→ .	-20
c1ccn2cc(C34CC5CC(CC(C5)C3)C4)nc2c1
→ -0.7	.
CCOC(=O)N1CCC(Nc2nn3nnnc3c3ccccc23)CC1
→ .	-18
O=C(CCc1c[nH]c2ccccc12)N(Cc1ccco1)Cc1cccs1
→ .	4
O=C(O)CC(Sc1nc2sc3c(c2c(=O)[nH]1)CCCC3)C(=O)O (stereo unspecified)
→ 6.6	7
COc1ccccc1N1C(=O)CC(SCC(=O)Nc2ccccc2)C1=O (stereo unspecified)
→ -0.3	5
CN(C)/C=N/N=C/c1cc(Cl)cc(Cl)c1O
→ .	-14
CC(NCc1ccccc1)c1ccccc1O (stereo unspecified)
→ -0.6	.
COc1cnc(-c2ccccc2)[nH]c1=O
→ -0.7	.
C/C(=N\O)c1oc(C)nc1C
→ -0.6	.
CC(C)(C)C(=O)OCc1nc(-c2ccc(F)cc2)cs1
→ -1.2	.
CN(C(=O)C1CCC(CNS(=O)(=O)c2cccc3cccnc23)CC1)C1CCCCC1 (stereo unspecified)
→ 12	17
CCOc1ncccc1C(=O)Nc1ccc(Cl)cc1
→ 2.1	.
O=C(O)CSCC(=O)N1CCN(c2cc(C(F)(F)F)nc3ccccc23)CC1
→ -3.4	.
CN(Cn1nc(Nc2ccccc2F)sc1=S)C1CCCCC1
→ .	-8
O=C(CC1OC(=O)c2ccccc21)OCC(=O)c1ccc(F)cc1 (stereo unspecified)
→ .	25
Cc1ccc(CN2CCC(CNC(=O)Nc3ccccc3F)C2)cc1 (stereo unspecified)
→ .	29
CC(=O)OC(Cn1cccn1)c1ccccc1 (stereo unspecified)
→ .	-7
CC1CC(=O)Nc2ccccc2N1S(=O)(=O)c1ccc(C#N)cc1 (stereo unspecified)
→ 3.0	.
COc1ccc(CCN2C(=O)/C(=C/c3c(F)c(F)c(F)c(F)c3F)SC2=S)cc1OC
→ -1.5	.
O=C(Nc1ccccc1)OC1c2cc(Cl)ccc2OC(=O)N1c1ccccc1 (stereo unspecified)
→ 1.2	.
NC1=CC(=O)c2ccccc2C1=O
→ .	-5
Cc1c(C)n(CC(O)CNC2CCCC2)c2ccccc12 (stereo unspecified)
→ .	3
Cc1noc(-c2ccccc2)c1NC(=O)N1CCSCC1
→ -0.9	.
CCN(CC)CCCOc1c(C)cc(Cl)cc1Cl
→ -1.8	10
CN(C)c1cc(-c2ccc(Cl)cc2)oc(=O)c1Cl
→ -1.5	.
O=C(NCc1ccccn1)c1ccc2c(=O)n3c(nc2c1)CCCCC3
→ .	7
CN(C)c1ccc(/C=N/c2nc3ccccc3n2Cc2ccc(Cl)cc2)cc1
→ 6.8	-23
Cc1ccc(S(=O)(=O)Oc2ccc(Cl)cc2Sc2cc(Cl)ccc2OS(=O)(=O)c2ccc(C)cc2)cc1
→ -0.9	.
COc1ccccc1NC(=O)c1ccc(NC(=O)COC(=O)C2CCCO2)cc1 (stereo unspecified)
→ .	3
CCOC(=O)C1=C(N)C(=O)N(c2ccccc2)C1
→ -0.4	.
CCCCNC(=O)c1ccc2c(c1)NC(=O)C(CC(C)C)N2 (stereo unspecified)
→ .	14
O=C(/C=C/c1ccc(Cl)cc1)NCc1ccccn1
→ -0.3	4
Cc1ccc(Nc2ncc(C(=O)NCCCN3CCN(C)CC3)c3ccccc23)cc1Cl
→ .	17
N#CCn1c(COC(=O)CCc2ccc(S(=O)(=O)N3CCOCC3)cc2)nc2ccccc2c1=O
→ .	-5

Further results.
Below each SMILES: MgrA-DNA mod	Sa helicase inh
C/C(N)=C(/C#N)C(=O)CSc1nnc(SCC(=O)/C(C#N)=C(\C)N)s1
→ .	3
O=c1nc(N2CCCC2)nc(N2CCCC2)[nH]1
→ -1.2	20
O=C(O)CC(SC(=NC1C=CCCC1)N1CCCCC1)C(=O)O (stereo unspecified)
→ -3.5	6
O=C(O)c1cc(O)c2c(c1)[C@@H]([C@H]1c3cc(C(=O)O)cc(O)c3C(=O)c3c(O[C@H]4O[C@H](CO)[C@@H](O)[C@H](O)[C@H]4O)cccc31)c1cccc(O[C@H]3O[C@H](CO)[C@@H](O)[C@H](O)[C@H]3O)c1C2=O
→ 19	.
Cc1ccc(S(=O)(=O)CCC(=O)OCN2C(=O)c3ccccc3C2=O)cc1
→ .	-5
COC(=O)NCC12CC3CC(CC(C3)C1)C2
→ 3.2	-5
CCOC(=O)c1c(NC(=O)c2nn3c(c2Br)NC(c2ccco2)CC3C(F)(F)F)sc2c1CCCC2 (stereo unspecified)
→ -0.3	.
NNC(=O)c1ccc2c(=O)n3c(nc2c1)CCC3
→ .	3
COC(=O)c1cc(S(=O)(=O)N(C)C2CCCCC2)cn1C
→ 0.6	17
COc1cccc2cc(C(=O)N3CCN=C3c3ccccc3)c(=O)oc12
→ .	-12
c1cc(N2CCOCC2)ccc1Nc1nc2nonc2nc1Nc1ccc(N2CCOCC2)cc1
→ -1.6	7
Cc1c(C(=O)NCc2ccc3c(c2)OCO3)oc2ccc3c(c12)C(O)CC1(CCCCC1)O3 (stereo unspecified)
→ .	13
O=C(Cc1nc2ccccc2[nH]1)c1ccc(F)cc1F
→ -0.4	-3
C[C@H](NS(=O)(=O)c1ccccc1)C(=O)Nc1nccs1
→ .	-14
CCCc1nnc2n1N=C(c1ccc(Cl)cc1)CS2
→ .	-2
N#CC1=C(N)N2C(=C(C#N)C13CCN(Cc1ccccc1)CC3)Nc1ccccc12
→ 2.8	15
CCN(CC(=O)NC1CCS(=O)(=O)C1)C(=O)C(c1ccccc1)c1ccccc1 (stereo unspecified)
→ .	-9
O=C(CSc1nnc(-c2ccco2)n1C1CCCCC1)c1ccc2[nH]c(=O)oc2c1
→ .	-35
COC(=O)c1nnn(-c2nonc2N)c1C(=O)OC
→ .	16
CC(C)=CCc1c(O)cc(O)c2c1O[C@H](c1ccccc1)CC2=O
→ -1.9	11
CCOC(=O)C1=C(C)N=c2s/c(=C\c3cc(Br)ccc3O)c(=O)n2C1c1ccc2c(c1)OCO2 (stereo unspecified)
→ 1.1	.
O=C(CSC1=NCCS1)c1cc(Cl)ccc1Cl
→ -0.3	-12
N#Cc1c(NC(=O)C2CC2)sc2c1CCCC2
→ -1.4	.
CC(=O)Nc1nc2nc(C)cc(=O)n2[nH]1
→ .	12
CCOC(=O)CCSc1ncnc2sc3c(c12)CCC3
→ .	-18
N=C1/C(=C\c2ccc(-c3ccc(Br)cc3)o2)C(=O)N=C2SC(N3CCOCC3)=NN12
→ .	0
O=c1[nH]c2ccccc2c(=O)n1CCc1nc(-c2ccccc2)no1
→ .	-29
CS(=O)(=O)N1CCN(C(=O)CCC(=O)O)CC1
→ -3.8	1
CN1CC=C2C(C(=O)O)=C(N)C(C#N)(C#N)[C@@H](c3ccncc3)[C@@H]2C1
→ 8.2	-6
CCN(CC)c1ccc2cc(C(N)=O)c(=Nc3ccccc3)oc2c1
→ -0.7	-75

Profiles from above. Screens in order: MgrA-DNA mod	Sa helicase inh
CCCc1nnc2n1N=C(c1ccc(Cl)cc1)CS2 is listed as .	-2
C[C@H](NS(=O)(=O)c1ccccc1)C(=O)Nc1nccs1 is listed as .	-14

2 consecutive entries already listed, for reference:
Below each SMILES: MgrA-DNA mod	Sa helicase inh
CN1CC=C2C(C(=O)O)=C(N)C(C#N)(C#N)[C@@H](c3ccncc3)[C@@H]2C1
→ 8.2	-6
CCN(CC)c1ccc2cc(C(N)=O)c(=Nc3ccccc3)oc2c1
→ -0.7	-75

More entries follow.
Below each SMILES: MgrA-DNA mod	Sa helicase inh
CC(C)C1Cc2[nH]c(=O)c(C(=O)O)cc2CO1 (stereo unspecified)
→ -7.3	13
CCN(CC)S(=O)(=O)c1ccc(=O)n(CC(=O)Nc2cccc(OC)c2)c1
→ .	2
Cn1cc(CCCC(=O)N2CCCC2)c2ccccc21
→ 0.0	-4
CCC(CO)NCC(O)Cn1c2c(c3cc(C)ccc31)CCCC2 (stereo unspecified)
→ .	15
C=CCSc1nc(C)c(CC=C)c(=O)[nH]1
→ -3.0	.
Cc1ccc(NC(=O)CSc2cc(=O)n(C)c3ccccc23)nc1
→ 4.0	9
Cc1ccc(NS(=O)(=O)c2ccc3c(c2)CCC(=O)N3)cc1Cl
→ .	29
CSc1nnc(-c2cccnc2)n1-c1ccccc1F
→ .	-10
Cc1ccc(-n2nc3c(N4CCCC(C(=O)N5CCc6ccccc65)C4)nnc(C)c3c2C)cc1 (stereo unspecified)
→ .	-46
CCOCCCNc1ncnc2sccc12
→ .	-3
CC1=NN(c2ccccc2)C(=O)/C1=C\c1cn(CCC#N)nc1-c1ccc(F)cc1
→ .	12
COc1ccc(C2CC(=O)N(CC(=O)N3CCCCC3)c3ccccc3S2(=O)=O)cc1OC (stereo unspecified)
→ .	14
NC(=O)c1ccc[n+]([C@H]2O[C@@H](COP(=O)([O-])OP(=O)(O)OC[C@H]3O[C@@H](n4cnc5c(N)ncnc54)C(O)[C@H]3O)C(O)[C@H]2O)c1 (stereo partly specified)
→ -0.4	.
COc1ccc(CC(=O)N2CCCCCC2)cc1OC
→ -1.5	12
O=C1NC(=Nc2ccccc2Cl)S/C1=C/c1cc2c(cc1Cl)OCO2
→ 1.1	.
OC(CNCCc1ccccc1)Cn1nnnc1-c1ccccc1 (stereo unspecified)
→ 2.3	8
Cc1cccc(C)c1NC(=O)Cn1nnnc1N
→ 2.4	0
FC(F)(F)c1ccc(-c2noc(-c3ccco3)n2)cc1
→ -0.6	-1
COC(OC)(C(C#N)c1ccccc1)C(F)(F)F (stereo unspecified)
→ -2.2	.
Cn1nnnc1SCC(=O)Nc1ccc(C(=O)Nc2ccc3c(c2)OC2(CCCC2)O3)cc1
→ .	11
COc1ccc(OCCSc2ncnc3nc[nH]c23)cc1
→ -0.5	7
CNC(=O)Cn1cccc1C(=O)c1ccccc1
→ .	3
COC(=O)c1cc([N+](=O)[O-])ccc1-n1cccc1
→ 1.7	.
Fc1cccc(CSCc2c(F)cccc2Cl)c1
→ -0.6	.
COc1ccc(CN(C)CC(=O)NC2CCCCC2)cc1
→ .	-3
c1ccc2c(NCNc3noc4ccccc34)noc2c1
→ 1.7	-17
COC(=O)CNC(=O)c1nc(SC)ncc1Cl
→ -1.8	.
CCCNC(=O)Cn1nc(C)n2c(cc3cc(C)ccc32)c1=O
→ 12	-3
CN(C)CCNC(=O)c1cc(N2CCc3ccccc3C2)nc2ccccc12
→ -1.2	17

A draw from above in order of SMILES length, smallest number first.
Below each SMILES: MgrA-DNA mod	Sa helicase inh
Fc1cccc(CSCc2c(F)cccc2Cl)c1
→ -0.6	.
COc1ccc(CC(=O)N2CCCCCC2)cc1OC
→ -1.5	12
Cc1ccc(NS(=O)(=O)c2ccc3c(c2)CCC(=O)N3)cc1Cl
→ .	29
COc1ccc(C2CC(=O)N(CC(=O)N3CCCCC3)c3ccccc3S2(=O)=O)cc1OC (stereo unspecified)
→ .	14

The list is partial, so the mix of outcomes need not match the whole.
